# UCH37 DUB inh – human UCH37 deubiquitinating enzyme inhibition. Q9Y5K5. purified proteasome/UCH37, Ub-AMC cleavage fluorescence. inhibition, % (test concentration not listed). 0.33% of 330,000 active. AID 588478;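 active = mean of two replicates above 20%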;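 also: 0% = compound-free wells with enzyme and 100% = wells lacking proteasome; stock transfer was 100 nL into about 20 µL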
# Target sequence (Q9Y5K5 whole entry, looked up): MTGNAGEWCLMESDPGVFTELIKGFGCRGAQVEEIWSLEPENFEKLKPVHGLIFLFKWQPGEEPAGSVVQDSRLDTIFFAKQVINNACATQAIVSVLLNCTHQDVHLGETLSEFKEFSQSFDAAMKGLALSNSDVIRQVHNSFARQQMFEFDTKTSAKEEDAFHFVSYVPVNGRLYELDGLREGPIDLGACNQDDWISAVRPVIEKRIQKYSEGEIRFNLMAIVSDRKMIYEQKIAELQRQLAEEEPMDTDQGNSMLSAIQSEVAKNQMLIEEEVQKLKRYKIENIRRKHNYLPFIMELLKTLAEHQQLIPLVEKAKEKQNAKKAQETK
#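 Material: human UCH37 enzyme supplied as purified proteasome complex / Amount: 0.15 nM proteasome as dispensed / Buffer or medium: pH 7.4 Tris-HCl (50 mM) with ovalbumin, ATP-MgCl2, DTT / Times: preincubation 30 min, reaction 25 min, room temperature / Technique: AMC fluorescence from Ub-AMC cleavage, excitation 355 nm, emission 460 nm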
# FGF22 binding – shifts melting point of recombinant human FGF22; Q9HCT0; recombinant FGF22 thermal shift, SYPRO orange fluorescence; percent of sucrose octasulfate shift, DMSO zero; calls only at 9.99 µM; 1.5% of 340,000 active;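 active = melting point raised past a set limit in the mean and every replicate; inconclusive = no clear call; three in four hits are not shown here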
# Target sequence (Q9HCT0 whole entry, looked up): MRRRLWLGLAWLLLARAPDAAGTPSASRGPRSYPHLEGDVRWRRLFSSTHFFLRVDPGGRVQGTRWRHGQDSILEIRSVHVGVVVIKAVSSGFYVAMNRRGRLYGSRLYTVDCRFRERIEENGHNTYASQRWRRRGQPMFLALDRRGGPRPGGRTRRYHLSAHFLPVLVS
# MLL AF4-AF9 inh – blocks AF4 peptide binding to human AF9; AlphaScreen, biotin-AF4 peptide binding to FLAG-AF9; P42568; AID 651704; 0.47% of 350,000 active; inhibition, % at 10 µM;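 active = every replicate reaching a set inhibition limit, whatever the replicate mean, cut at about 25% in these data; inconclusive = mean inhibition reaches that limit but some replicates miss it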;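 also: 0% = plate neutral control median and 100% = total signal loss; the record names both 10 and 1 µM as test concentration; the first replicate is given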
# Target sequence (P42568 whole entry, looked up): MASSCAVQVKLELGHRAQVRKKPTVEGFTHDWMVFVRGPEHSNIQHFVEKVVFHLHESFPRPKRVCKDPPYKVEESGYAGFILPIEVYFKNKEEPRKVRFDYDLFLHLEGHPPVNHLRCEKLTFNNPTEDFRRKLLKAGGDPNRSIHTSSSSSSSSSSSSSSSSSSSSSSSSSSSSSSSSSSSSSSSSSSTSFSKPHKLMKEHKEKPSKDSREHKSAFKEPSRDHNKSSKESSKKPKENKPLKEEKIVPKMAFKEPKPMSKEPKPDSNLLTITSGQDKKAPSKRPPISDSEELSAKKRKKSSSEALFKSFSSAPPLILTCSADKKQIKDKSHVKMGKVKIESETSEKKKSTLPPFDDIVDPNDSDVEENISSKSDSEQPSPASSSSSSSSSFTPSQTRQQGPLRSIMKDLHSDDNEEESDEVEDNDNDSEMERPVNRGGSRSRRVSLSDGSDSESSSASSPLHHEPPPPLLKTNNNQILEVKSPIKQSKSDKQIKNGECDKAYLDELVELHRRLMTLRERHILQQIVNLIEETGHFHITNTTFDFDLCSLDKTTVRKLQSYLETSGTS
# HNF4A DNA FP – change in binding of human HNF4 alpha to DNA | P41235 | HNF4a-FITC DNA binding, fluorescence polarization, 1 h | activity change, % at 10 µM | 0.3% of 360,000 active; in the data active = activity change above about 30%, passing the limit was not always enough;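 also: controls were the assay level and a saturating level of protein; the project sought stronger binding though the title names inhibitors; some compounds called inactive have numbers as strong as hits; positive values seem to mean higher polarization but the record does not say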
# RanGTP-Imp inh – disruptors of Ran-importin-beta complex formation – biochemical, FRET, CFP-Ran, YFP-importin-beta, homogeneous, primary screen. inhibition, % (concentration not given with the values). cell-free CFP-Ran/YFP-importin-beta FRET ratio. 1.1% of 300,000 active. AID 2216;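 active = most replicates above 15%; inconclusive = exactly half above 15%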;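 also: 0% = DMSO wells and 100% = Ran loaded with GDP instead of GTP; wells of about 40 µL received 100 nL stock; the first replicate is given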
# Ecoli growth – blocks Escherichia coli growth; OD600, 23 h; active compounds read low; OD600 absorbance (concentration not given with the values); 0.21% of 330,000 active;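 active = OD600 absorbance below the run mean of sample wells minus 3.6 SD, in any replicate, cut at about 0.56 in these data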;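 also: stock transfer was 300 nL into about 60 µL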
# Vif TR-FRET – HIV-1 Vif–A3G interaction blockers – biochemical, TR-FRET, GST-Vif 1-94, biotin-A3G peptide, dose response retest, primary screen (AID 1117319) | TR-FRET GST-Vif / biotin-A3G peptide binding; higher % means a stronger effect; test concentration not given here; strong numbers were not always called active | inhibition, %, or IC50 in µM where a hit was titrated | 0.57% of 260,000 active;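 active = above the screen mean plus three standard deviations and confirmed in dose response; inconclusive = results disagree or hit not tested in dose response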;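 also: Vif residues 1-94 fused to GST binding biotinylated APOBEC3G peptide 110-148; 0% = full assay without inhibitor and 100% = GST in place of GST-Vif; retest series ran down from 100 µM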
# Numbers without * were called inactive; i = inactive; ? = inconclusive; · = no result given. This is a subset; the hit share may differ from the screen's.
SMILES,UCH37 DUB inh,FGF22 binding,MLL AF4-AF9 inh,HNF4A DNA FP,RanGTP-Imp inh,Ecoli growth,Vif TR-FRET
O=C(Nc1ccc(OCC(=O)N2CCOCC2)cc1)c1cncc(Br)c1,1.8,i,0.3,0.0,6.1,0.691,-7.3%
COc1ccc(-c2cn(Cc3ccc([N+](=O)[O-])cc3)nn2)cc1,2.3,i,-2.3,-4.8,0.7,0.679,·
CCOc1ccc(N=Nc2c(=O)[nH]n3c(=O)cc(C)[nH]c23)cc1,12.6,·,·,7.5,-5.0,0.734,17.3%
CC1(C(=O)NS(=O)(=O)c2ccc(Cl)s2)CCN1C(=O)Cc1ccccc1Cl (centres undefined),·,i,-5.2,4.5,·,·,·
Cc1ccc(C)c(NC(=O)C2CC=CCC2C(=O)O)c1 (centres undefined),0.3,·,·,0.8,2.7,0.741,-2.1%
COc1ccc(CCNC(=O)C2CCN(C(=O)c3ccccc3C)CC2)cc1,1.9,i,-0.1,-0.8,-0.6,0.698,1.5%
COc1ccc(OC)c(NC(=O)CSc2nc3scc(C)c3c(=O)[nH]2)c1,·,i,-0.6,1.0,1.9,·,·
CC(OC(=O)c1ccc2c(=O)n3c(nc2c1)CCC3)C(N)=O (centres undefined),0.8,i,-4.0,6.6,2.6,0.701,·
O=C(COc1ccccc1[N+](=O)[O-])N1CCCc2ccccc21,2.1,i,-0.9,-1.4,3.1,0.671,·
Cc1ccc(S(=O)(=O)N2C[C@@H](C)[C@]3(C2)[C@H](O)[C@H](OC(=O)Nc2cccs2)C[C@H]2C(=O)N(c4ccccc4)C(=O)[C@H]23)cc1,·,i,0.8,-2.4,·,·,-2.2%
COc1cc(OC)c(OC)cc1CNCCSc1nnnn1C,2.6,i,1.3,3.2,-3.9,0.704,·
Cc1sc2ncn(CC(=O)NCCCC(=O)N3CCN(c4ncccn4)CC3)c(=O)c2c1C,3.5,·,·,-1.5,2.3,0.724,-5.2%
C=CCn1c(SCC(=O)N(CCOC)c2c(N)n(CC(C)C)c(=O)[nH]c2=O)nc2ccccc21,1.2,i,3.2,1.4,?,0.68,2.6%
CCCNC(=O)COC(=O)c1cc(-c2ccc(OC)cc2)nc2ccccc12,-156.0,i,-2.3,-6.0,-0.3,0.718,·
Cc1nnc(NC(=O)c2cccc(S(=O)(=O)N(C)c3cccc(Cl)c3)c2)s1,4.0,i,0.0,1.8,·,0.648,1.1%
N=c1c(C(=O)NCC2CCCO2)cc2c(=O)n3ccccc3nc2n1C1CCCC1 (centres undefined),i,i,-1.1,-1.0,185.9*,0.642,·
C/C(=N\Nc1nncc2ccccc12)c1ccc(Cl)c([N+](=O)[O-])c1,·,i,-7.0,4.5,-1.6,·,18.2%
O=C(O)c1ccc(/C=C2\SC(=S)N(NC(=O)c3ccc(Br)cc3)C2=O)cc1,12.3,i,-0.9,1.1,1.7,0.661,·
O=C(c1ccco1)c1cn[nH]c1-c1ccc(Cl)cc1O,1.7,·,·,0.1,0.5,0.68,16.7%
CC(C)Oc1ccc(/C=C(\NC(=O)/C=C/c2ccco2)C(=O)NCCc2nc3ccccc3[nH]2)cc1,4.1,i,2.2,13.0,-6.1,0.708,·
COc1ccc(N(C(=O)c2ccco2)C(C(=O)NC2CCCC2)c2ccc(N(C)C)cc2)cc1OC (centres undefined),0.5,·,·,-3.3,-0.2,0.758,17.8%
Cc1ccccc1CNC(=O)Nc1ccc(Cl)cc1,2.5,i,3.5,1.8,2.2,0.701,-0.4%
Cc1ccc(S(=O)(=O)CCc2ccncc2)cc1,3.3,i,0.0,0.9,2.9,0.726,-7.0%
CCOC(=O)c1c(C)[nH]c(C(=O)CSc2nnc(CC(C)c3ccccc3)o2)c1C (centres undefined),5.2,·,·,4.3,-1.5,0.752,-8.4%
CCOC(=O)C1CCCN(C(=O)c2ccc(Cl)c(S(=O)(=O)N3CCc4ccccc43)c2)C1 (centres undefined),·,i,1.4,5.3,·,·,·
SMILES,UCH37 DUB inh,FGF22 binding,MLL AF4-AF9 inh,HNF4A DNA FP,RanGTP-Imp inh,Ecoli growth,Vif TR-FRET
CC(=O)c1ccc(NS(=O)(=O)c2ccc(CC(C)C)cc2)cc1,2.8,·,·,0.0,-5.5,0.661,5.2%
COc1cccc(NC(=O)CN(C)C(=O)c2ccccc2OCC(=O)Nc2cccc(C(F)(F)F)c2)c1,2.1,i,3.1,3.5,5.9,0.631,-7.9%
CCC1(C)Cc2c(sc3nnn(CC(=O)Nc4ccccc4C)c(=O)c23)CO1 (centres undefined),5.5,·,·,-3.8,-4.5,0.742,11.6%
Oc1ccccc1CN(Cc1ccco1)CC(O)COCc1ccc(Cl)cc1 (centres undefined),8.3,·,·,0.4,1.1,0.628,·
Cc1ccc2c(c1)N(CC(=O)N1CCC(C)CC1)C(=O)c1cccnc1O2,-0.3,i,-6.0,4.0,2.1,0.679,·
Fc1ccc(N/N=C/c2ccc(N3CCOCC3)cc2)c(F)c1,·,i,10.6,0.8,-2.3,·,·
COCCn1c(C)cc(C(=O)COC(=O)c2cc3c(s2)CCC3)c1C,-13.4,·,·,-14.9,-3.6,0.739,?
COc1ccc(Cl)cc1NC(=O)CC1CCCC1,1.6,i,0.5,0.6,1.2,0.639,·
CN(C)CCCn1c(SCCN2C(=O)c3ccccc3C2=O)nc2ccccc2c1=O,3.5,·,-0.7,1.6,-1.8,0.672,-0.4%
Nc1ccc(-c2nc3c(Cl)cc(N)cc3[nH]2)cc1,-273.6,·,·,0.5,-4.0,0.71,6.9%
CN(Cc1ccccc1)C(=O)c1cccc(NC(=O)Cc2ccc(NC(=O)C3CCCN(C(=O)C4CCCC4)C3)cc2)c1 (centres undefined),-2.4,·,-1.6,2.3,·,0.714,·
c1ccc(-n2nnnc2-n2nnc3ccccc32)cc1,1.0,·,·,0.0,4.2,0.749,8.0%
Cc1cccc(NS(=O)(=O)c2ccc(Br)s2)n1,-2.3,·,·,11.2,-1.5,0.722,1.3%
O=C(CN1C(=O)S/C(=C/c2ccc(N3CCOCC3)cc2)C1=O)N1CCOCC1,5.6,·,·,15.1,-26.2,·,-1.4%
CCN(CC)C(=O)[C@H]1CC(CC(=O)NCCN2CCOCC2)C(=O)N2CCc3c([nH]c4ccccc34)[C@]12C (some centres undefined),-0.8,·,-2.1,2.6,·,0.678,7.3%
CCCc1cc(C(=O)NCc2ccc(OC)cc2)no1,2.8,i,7.9,-0.5,1.5,0.692,-2.8%
COc1cc(CN2CCCCCC2)cc(OC)c1OC,5.1,i,-2.8,3.0,-1.6,0.673,·
O=C(Nc1ccc(F)cc1)c1sc(Cl)nc1-c1ccccc1,1.3,·,·,-1.3,-0.8,0.677,-339.0%
Cc1c(C(=O)N2CCC(C(N)=O)CC2)oc2ccc(Br)cc12,-1.2,i,9.3,-1.3,-1.4,0.622,-1.4%
Cc1ccc(-n2c(C)c(C)c3c(N)ncnc32)cc1,5.7,i,12.8,-2.3,-2.0,0.695,·
CN1C(=O)CSC1=S,-1.3,i,0.4,2.2,?,·,·
Cc1cccc(N2CCN(C(=O)c3cccc(N4CCCC4=O)c3)CC2)c1C,2.1,i,1.8,-2.6,-2.4,0.638,3.1%
CCOc1ccc(/C=C2\SC(=S)N(NC(=O)c3ccncc3)C2=O)cc1OC,11.8,i,-0.2,6.7,-17.3,0.692,?
COC(=O)c1c(NC(=O)COc2ncnc3ccccc23)sc(C)c1C,2.2,i,-11.0,-6.0,0.9,0.69,31.6%
CCC(C)c1ccccc1NC(=O)C(C)NCCN(C)C (centres undefined),4.3,i,2.4,-2.7,-2.3,0.686,·
SMILES,UCH37 DUB inh,FGF22 binding,MLL AF4-AF9 inh,HNF4A DNA FP,RanGTP-Imp inh,Ecoli growth,Vif TR-FRET
CCOC(=O)C1(CCOC)CCN(C(=O)c2ccc(CSC)o2)CC1,-0.4,i,0.8,-2.8,-2.3,0.707,·
CC1(C)Cc2cccc(OCC(=O)Nc3cc(S(C)(=O)=O)ccc3Cl)c2O1,3.3,i,4.7,1.1,·,0.64,-3.8%
CN(C)S(=O)(=O)c1ccc(NC(=O)c2ccc([N+](=O)[O-])cc2)cc1,4.2,i,-33.3,5.0,-1.1,0.648,9.8%
CC(C)C(NC(=O)CN1C(=O)c2ccccc2C1=O)c1ccccc1 (centres undefined),2.2,i,0.1,-2.5,-1.8,0.704,-5.4%
CC(C)c1ccc(NC(=O)C[n+]2ccn(C3=C([O-])c4ccccc4C3=O)c2)cc1,11.3,i,-1.9,2.4,3.8,0.699,-4.3%
COC(=O)c1ccc(N2C(=O)c3ccc(OC)c(OC)c3C2=O)cc1,1.6,·,·,3.7,4.2,0.74,·
CCc1cccc(NC(=O)C2CC2c2ccccc2)c1 (centres undefined),-0.5,i,0.8,-4.3,2.5,0.644,·
COc1c(C(=O)NC(=S)Nc2nnn(C)n2)cc2ccccc2c1Br,6.0,i,-1.5,-0.7,1.5,0.705,2.8%
Cc1ccc(N2CC(C(=O)NCCC(C)C)CC2=O)cc1 (centres undefined),3.3,·,·,-1.4,6.3,0.792,24.6%
O=[N+]([O-])c1cc(C(F)(F)F)ccc1SCC(O)CO (centres undefined),2.8,i,-0.8,-1.3,-1.5,0.692,-0.5%
Cc1cccc(/C=N/n2c(-c3ccccc3)n[nH]c2=S)c1O,·,i,-5.7,1.6,2.3,·,·
COc1ccccc1Cc1c(-c2ccc(C)cc2)nc2ccc(Cl)cn12,·,i,3.3,12.1,·,·,·
CCn1nc(C(=O)Nc2ccc3c(c2)OCCO3)c2ccccc2c1=O,·,i,3.6,-5.2,·,·,-0.9%
CCC(=O)NC(=S)Nc1ccc(S(=O)(=O)NC2CCCCC2)cc1,·,i,-0.6,3.1,0.7,·,5.2%
O=C(NCCCn1ccnc1)/C(=C/c1cccs1)NC(=O)c1ccco1,3.8,i,-0.8,-1.0,-5.5,0.675,·
O=C(NCc1ccco1)/C(=C\c1ccccc1)NC(=O)c1ccccc1,2.0,i,-0.9,-1.3,3.8,0.655,·
O=C1CN(O)C=C2N=c3ccccc3=C2N1c1ccc([N+](=O)[O-])cc1,11.8,i,4.5,6.7,-0.3,0.716,·
CCN(CC)C(=O)C1=C(C)NC(=S)NC1c1ccc(C)s1 (centres undefined),1.6,i,-5.0,-1.3,2.0,0.689,2.6%
Nc1nc(SCc2cccc([N+](=O)[O-])c2)n[nH]1,5.0,i,3.4,1.4,0.6,0.679,-6.3%
O=C(Nc1ccc(N2CCOCC2)cc1)c1cnsn1,·,·,·,1.4,-1.6,·,?
CSc1cccc(NC(=O)CCCn2c(=O)c3cccn3c3cccnc32)c1,-2.0,i,-5.4,0.2,?,0.673,-13.7%
O=C(c1ccc(OC2CCN(CCO)CC2)cc1)N1CCCC1,-0.3,·,·,0.8,2.5,0.704,-4.0%
C/C(=N\NC(=O)c1nc2ccccn2c1C)c1ccco1,·,i,-1.1,0.3,0.5,·,14.4%
Cc1cc(C)nc(NC(=O)c2c(F)c(F)c(F)c(C(=O)Nc3cc(C)cc(C)n3)c2F)c1,-15.1,i,-2.7,-0.2,1.9,0.658,·
Cc1n[nH]c(C)c1S(=O)(=O)N1CCOCC1,3.2,·,·,-2.7,0.3,0.795,27.2%
C/C(CCc1ccccc1)=N\NC(=O)c1ccccc1[N+](=O)[O-],·,·,·,-2.0,-2.0,·,7.7%
COc1cccc(C2CC(c3ccc(Cl)cc3)n3nc(N)nc3N2)c1 (centres undefined),3.7,i,-1.1,4.9,0.1,0.75,1.3%

# Random excerpt: two compounds from above, in no set order.
SMILES,UCH37 DUB inh,FGF22 binding,MLL AF4-AF9 inh,HNF4A DNA FP,RanGTP-Imp inh,Ecoli growth,Vif TR-FRET
O=C(NCCCn1ccnc1)/C(=C/c1cccs1)NC(=O)c1ccco1,3.8,i,-0.8,-1.0,-5.5,0.675,·
Cc1cc(C)nc(NC(=O)c2c(F)c(F)c(F)c(C(=O)Nc3cc(C)cc(C)n3)c2F)c1,-15.1,i,-2.7,-0.2,1.9,0.658,·

# Bioassay records from PubChem.
